VACV Venus inh: vaccinia inhibition (Venus reporter); hit rate 0.46% among 330,000; Potency, µM (series often up to 36.5 µM), for inactives: at the top dose activity change, negative = inhibition, usual class: inhibitors; AID 720580; Vaccinia virus Venus reporter expression, fluorescence; active means well fitted inhibition curve with a large enough effect; inconclusive means small, poorly fitted or top-dose-only effect; inactive means no such curve, though single readings can be large or run the other way; tested in A549 cells; further: nearly all actives have a fitted effect of over 30% in size; inactives centre near -10
VACV mCherry inh: inhibitors of vaccinia virus infection (mCherry reporter signal). Vaccinia virus mCherry reporter infection, fluorescence; about a quarter of the inactives have no number. Potency, µM (highest dose often 36.5 µM), without a hit: at the highest dose activity change, negative = inhibition, actives largely listed as inhibitors. hit rate 0.63% among 310,000; active = well fitted inhibition curve with a large enough effect; inconclusive = small, poorly fitted or top-dose-only effect; inactive = no such curve, though single readings can be large or run the other way; tested in A549 cells; further: nearly all actives have a fitted effect of over 35% in size; inactives centre near -10
The depositor's hits bear a star; i = inactive; ? = inconclusive; . = no result given; & = joins results of further samples. On the % scale 0 is the no-effect control and ±100 the full control effect; potency means the concentration at half of the fitted maximal effect.

#	SMILES	VACV Venus inh	VACV mCherry inh
1	CCN(CC)CCNC(=O)CNC(=O)c1nn(-c2ccc(OC)c(OC)c2)c(=O)c2ccccc12	-5%	-13%
2	COc1ccc(-n2c(-c3ccco3)nc3c(cnn3-c3ccccc3Cl)c2=O)cc1	-4%	-20%
3	COc1ccccc1OC(=O)CCN1c2ccccc2Sc2ccccc21	-1%	-13%
4	COc1ccc(NC(=S)Nc2ccccc2)cc1	-17%	-5%
5	O=C(Nc1nnc(C2CC2)s1)c1cc(Cl)sc1Cl	-4%	-17%
6	CC(=O)Cc1nsc(NC(=O)c2c(-c3ccccc3Cl)noc2C)n1	4%	-11%
7	CC(C)Cn1cc(-c2cccc3nccn23)cn1	0%	5%
8	CS(=O)(=O)ON=C1CCN(S(=O)(=O)c2ccccc2)CC1	-5%	-20%
9	Cc1cc(S(=O)(=O)NC2CC(C)(C)NC(C)(C)C2)c(Cl)cc1Cl	-2%	i
10	CCc1ccc(NC(=O)Cn2c(=O)n(CCCCC(=O)NCc3ccccc3Cl)c(=O)c3ccccc32)cc1	-19%	-25%
11	CCOc1cc(CNn2cnnc2)cc(Cl)c1OCC(=O)NC(C)(C)C	-6%	i
12	COc1ccccc1NC(=O)Cn1c(=O)n(Cc2cccs2)c(=O)c2cccnc21	-18%	-13%
13	Cc1ccc(NC(=O)COc2cccnc2[N+](=O)[O-])cc1S(=O)(=O)N1CCCCC1	-30%	i
14	COc1cccc(NC(=O)CN(C)C(=O)/C=C/c2ccc(S(=O)(=O)N3CCCCCC3)cc2)c1	?	?
15	Cc1ccc(NC(=O)C2CCCN(S(=O)(=O)c3cccc4cccnc34)C2)cc1 (centres undefined)	-20%	-20%
16	CC(C)c1ccc(NC2CCCN(C(=O)CCn3cnnn3)C2)cc1 (centres undefined)	-24%	-21%
17	Cc1nn(-c2ccc(F)cc2)c(Cl)c1/C=C/C(=O)OCC(=O)Nc1ccc(F)cc1F	-12%	i
18	C[C@H]1CN([C@@H](C)CO)S(=O)(=O)c2ccc(Br)cc2O[C@@H]1CN(C)C(=O)c1cccnc1	-14%	-9%
19	Cc1cc(C(=O)N2CCCC(CNS(=O)(=O)c3cccs3)C2)nn1C (centres undefined)	-8%	-12%
20	COc1ccccc1OCC(=O)N1CCC2(CC1)CC(=O)c1ccccc1O2	-9%	-19%
21	COc1ccc(OC)c2c1cc(C(=O)N[C@H](C(=O)N1CCC[C@H]1C(=O)O)C(C)C)n2C	0%	-14%
22	O=C(NNC(=O)C1CC=CCC1)c1ccccc1O (centres undefined)	2%	?
23	CCSC(=Nc1ccccc1)Nc1ccccc1	-7%	-16%
24	CCOc1ccc(CCNC(=O)c2cnc3sc(N4CCCCCC4)nn3c2=O)cc1	?	-8%
25	CCOC(=O)N1CCC(NC(=O)c2ccc(CO)c(C(=O)NC3CCN(C(=O)OCC)CC3)c2)CC1	-10%	i
26	O=C(COC(=O)c1ccc(Br)o1)NC1CCCCC1	-5%	-5%
27	CCn1ncc(/C=N/NS(=O)(=O)c2ccc(Cl)cc2)c1C	-19%	.
28	COc1cccc(OCc2nc3ccccc3c(=O)n2N)c1	-24%	-3%
29	CCCCn1nnnc1NCc1cc(OC)c(OC)cc1OC	-11%	-5%
30	NC(=O)CC(NC(=O)Cc1ccc(Cl)cc1)c1ccc(NCCCN2CCCC2=O)c([N+](=O)[O-])c1 (centres undefined)	-7%	-3%
31	NC(=O)c1cc(N2CC2)c([N+](=O)[O-])cc1[N+](=O)[O-]	-12%	i
32	C=C1CCN([C@@H](CC(C)C)C(=O)NCCCc2ccccc2)S(=O)(=O)c2ccccc21	-16%	-13%
33	O=S(=O)(NCCc1ccccc1)c1ccc(-n2cnnn2)cc1	6%	-6%
34	Cn1c(=O)c2c([nH]c(=S)n2CCCc2ccccc2)n(C)c1=O	-6%	i
35	CCOc1ccc(OCc2ccc(C(=O)Nc3cc(OC)c(OC)c(OC)c3)o2)cc1	-11%	-3%
36	CCc1cc(C(=O)N2CCCC(C(=O)c3ccc(Oc4ccccc4)cc3)C2)n(C)n1 (centres undefined)	-27%	-5%
37	O=C(NCCC(=O)N1CCNC1=O)OCc1ccccc1	-2%	-13%
38	O=C(NCCC1=CCCCC1)C1CCC(CNc2nc(=S)[nH]c3ccccc23)CC1 (centres undefined)	-6%	?
39	Cc1cc(NC(=O)CSc2ncnc3sc(C)c(C)c23)no1	-14%	i
40	CCCCCn1c(=S)[nH]c2cc(C(=O)N3CCN(C(=O)OCC)CC3)ccc2c1=O	4%	12%
41	CCOP(=O)(CN(CC)CCNP(=O)(OCC)OCC)OCC	0%	.
42	COc1ccc(-c2cnn(-c3ccccc3)c2N)cc1OC	-20%	-21%
43	CCOC(=O)C1=C(C)NC(=O)NC1c1ccc(Br)o1 (centres undefined)	-18%	-16%
44	O=C(NCC(c1cccs1)N1CCOCC1)c1cc(-c2ccccn2)nc2ccccc12 (centres undefined)	-7%	-16%
45	COc1ccc(O)c(C(=O)CC(=O)c2cccnc2)c1	0%	1%
46	Cc1ccnc(NC(=O)CN(C)S(=O)(=O)c2cccc3nsnc23)c1	-3%	-13%
47	CCCCCSc1nnc(-c2ccc(Br)cc2)o1	9%	6%
48	CCOC(=O)N1CCC2(CC1)OC(=O)C(C)=C2C(=O)NCc1cccc(OC)c1	5%	-9%
49	Cc1ccc(/C=N/n2c(-c3cccnc3)n[nH]c2=S)o1	-4%	-27%
50	Cc1nn(-c2ccccc2)c(C)c1CC(=O)NCC1Cc2cc(-c3cncnc3)ccc2O1 (centres undefined)	2%	-11%
51	COc1ccc(CCNC(=O)COc2ccc3c(C)cc(=O)oc3c2)cc1OC	-13%	-14%
52	COc1cccc(C(c2nnnn2Cc2ccccc2)N2CCN(C(=O)c3ccco3)CC2)c1OC (centres undefined)	-10%	.
53	Cc1c(Cl)cccc1NS(=O)(=O)c1cn(C)c(=O)n(C)c1=O	-5%	i
54	COc1ccc(C(C)=O)c(OC(=O)c2ccco2)c1	-9%	-7%
55	CN1C(CC(=O)c2ccccc2)CCCC1CC(O)c1ccccc1 (centres undefined)	-8%&-8%	-17%&-13%
56	CC1CCCCN1C(=S)Nc1ccc2nc3n(c(=O)c2c1)CCCCC3 (centres undefined)	0%	-14%
57	CNC(=O)CN1C(=O)COc2ccc(S(=O)(=O)N3CCCCCC3)cc21	-9%&8%	-19%&-9%
58	C/C(=N\NC(=O)CNc1cccc(Cl)c1C)c1cccs1	-5%	-20%
59	O=C1NC[C@H](CCCCN2CCN(CCC3CCCCC3)C(=O)C2=O)N(CCc2ccccc2)C1=O	4%	-1%
60	COc1ccc(/C=C/C(=O)NCCCc2ccccc2)cc1OC	-24%	-25%

Remaining list, next part.
#	SMILES	VACV Venus inh	VACV mCherry inh
61	CCOc1ccc(CCNC(=O)CN2C(=O)NC3(CCCCC3)C2=O)cc1OCC	-21%	-2%
62	CCc1ccc(NC(=O)Cn2c(=O)n(CCCC(=O)NCCc3ccc(OC)c(OC)c3)c(=O)c3ccccc32)cc1	-6%	-10%
63	CCCC(=O)c1cc2c(cc1NC(=O)c1cccs1)OCCO2	-6%	-9%
64	O=C(CSc1nc2ccc([N+](=O)[O-])cc2s1)NC1CCS(=O)(=O)C1 (centres undefined)	2%	-9%
65	CS(=O)(=O)c1ccccc1COC(=O)Nc1ccc(Cl)cc1	-8%	-2%
66	Nc1nonc1-c1noc(CCCCCN2C(=O)c3ccccc3C2=O)n1	-17%	-4%
67	CCNc1nc(Cl)nc(NCC)n1	0%	i
68	O=C(/C=C/c1ccccc1)Nc1ccc(S(=O)(=O)N2CCOCC2)cc1	-28%	?
69	COc1ccccc1NC(=O)COC(=O)CNC(=O)C1CCCCC1	-1%	-12%
70	O=S(=O)(c1ccc(Cl)cc1)c1nc(-c2ccco2)oc1N1CCCCC1	1%	-12%
71	O=C(COC(=O)c1ccc(Br)o1)Nc1ccc2c(c1)OCCO2	-9%	-18%
72	COC(=O)c1sc2ccccc2c1NC(=O)c1coc2ccccc2c1=O	-10%	-18%
73	Cc1ccc(NC(=O)CCNC(=O)c2ccc(Br)cc2)cc1S(=O)(=O)N1CCOCC1	-26%	?
74	CCc1ccc(-c2nc3c(c(SCc4ccc(F)cc4)n2)Cc2c(CO)cnc(C)c2O3)cc1	-9%	0%
75	CC(C)c1cccc(C(C)C)c1Nc1cn[nH]c1	-11%	3%
76	CC(=O)Nc1ccc(S(=O)(=O)NC2=NCN(C)CN2)cc1	-12%	i
77	COc1cccc(C(=O)Nc2ccc3c(c2)OC[C@H](C)N(CCc2ccccc2)C[C@@H](C)[C@@H](OC)CN(C)C3=O)c1	-13%	?
78	O=C(OCC(=O)N1CCc2ccccc21)c1ccccc1[N+](=O)[O-]	-3%	i
79	COc1ccc(Cl)c2c1[nH]c1nc(SCc3ccccn3)nnc12	?	?
80	COc1ccc(C(=O)CN2CC(C)SC2=Nc2ccc(Cl)cc2)cc1 (centres undefined)	-12%	i
81	O=S(=O)(c1cccs1)N1CN(Cc2ccc(F)cc2)c2nc3ccccc3nc21	-21%	.
82	Cc1ccc(C)c(S(=O)(=O)N2CCC3(CC2)OCCO3)c1	-10%	i
83	O=C(NCCO)c1cccc(-c2cnc3c(Nc4cccc(OC(F)(F)C(F)F)c4)nccn23)c1	-15%	i
84	O=c1c(N2CCc3ccccc3C2)csc2ccc(F)cc12	-14%	-20%
85	CCCC(=O)N(Cc1cc2cc(OC)ccc2[nH]c1=O)c1ccc(OC)cc1	-2%	-3%
86	COc1ccc(CNC(=O)[C@H](C)NC(=O)C2CCN(C(=O)[C@@H](N)Cc3ccccc3)CC2)cc1	-4%	0%
87	COc1ccc(/C=C(\NC(=O)c2ccc([N+](=O)[O-])cc2)C(=O)N2CCOCC2)cc1	-8%	-3%
88	Cc1nn(Cc2nnc(SCC(=O)Nc3ccc(Cl)cc3)n2C)c(C)c1[N+](=O)[O-]	-25%	?
89	CCOc1ccc(NC(=O)c2c(O)[nH]c(=O)[nH]c2=O)cc1	3%	-3%
90	CC(=O)Nc1ccc(/C=C/C(=O)c2ccc(-n3nncc3-c3ccccc3)cc2)cc1	-7%	-4%

Shown in transposed form: entries from further up
#90 CC(=O)Nc1ccc(/C=C/C(=O)c2ccc(-n3nncc3-c3ccccc3)cc2)cc1
#67 CCNc1nc(Cl)nc(NCC)n1
#69 COc1ccccc1NC(=O)COC(=O)CNC(=O)C1CCCCC1

| entry no. | 90 | 67 | 69 |
| --- | --- | --- | --- |
| VACV Venus inh | -7% | 0% | -1% |
| VACV mCherry inh | -4% | i | -12% |

Carrying on.
#	SMILES	VACV Venus inh	VACV mCherry inh
91	Cc1c2cnn(-c3ccccc3)c(=O)c2c(C)n1C(C)C(=O)NCc1cccc(Br)c1 (centres undefined)	-25%	i
92	COc1ccc(S(=O)(=O)Nc2nncs2)cc1	-10%	-10%
93	O=C(O)C1CCC(=O)N1C(=O)OCc1ccccc1 (centres undefined)	-14%	-5%
94	COc1ccc(CCC(=O)NC(C)C2CCCO2)cc1 (centres undefined)	-8%	-2%
95	CCOC(=O)N1CCN(CC(=O)Nc2nccs2)CC1	-2%	-11%
96	OC[C@H]1O[C@@H](c2nc(-c3ccc(CN4CCOCC4)cc3)no2)[C@H](O)[C@@H](O)[C@H]1O	1%	4%
97	COc1cccc(OC(=O)N2CCOCC2)c1	-6%	-12%
98	Cc1ccc(S(=O)(=O)N2CCN(CC(=O)NC(C)c3ccccc3)CC2)cc1 (centres undefined)	-23%	-2%
99	COc1cccc(NC(=O)NNC(=O)CCc2ccc(O)c(O)c2)c1	4%	?
100	CCCCOCCCNC(=O)/C=C/c1ccccc1Cl	-15%	-22%
101	O=C(CS(=O)(=O)c1ccccc1)Nc1nc(-c2ccccc2)cs1	-6%	.
102	COc1ccc(Cl)cc1NC(=O)C(C)Sc1n[nH]c(N)n1 (centres undefined)	-10%	.
103	CCn1c(=O)c(C(=O)Nc2ncccc2O)c(O)c2ccccc21	-19%	?
104	COC(=O)c1c(NC(=O)c2cccs2)sc2c1CCC(C)C2 (centres undefined)	-14%	.
105	CCN(CC)CCCNC(=O)c1c(C)oc2ncn(CC(C)C)c(=O)c12	-9%	-3%
106	Cc1ccc(NC(=O)CCOc2ccccc2C)cc1F	-15%	-19%
107	COc1ccccc1Cc1nc2ccccc2nc1SCC(=O)NCCc1ccccc1	-6%	-10%
108	CCc1ccc(-n2c(CCC(=O)O)ccc2-c2cccs2)cc1	-9%	-2%
109	CN(C)S(=O)(=O)c1cccc(NC(=O)COC(=O)CCSc2ccc(Cl)cc2)c1	-10%	-9%
110	O=C(CN1CCN(S(=O)(=O)c2ccc(Br)cc2)CC1)N/N=C/c1cccs1	-22%	-5%
111	COc1ccc(-n2nc(C(=O)NCC(=O)N3CCN(Cc4ccccc4)CC3)c3ccccc3c2=O)cc1OC	-10%	i
112	COC(=O)C[C@@H]1OC[C@H](Cc2ccccc2)N1S(=O)(=O)c1ccc(C)cc1	-18%	?
113	CCOc1ccccc1OCC(=O)Nc1ccc(OC)c(S(=O)(=O)N2CCCCC2)c1	-20%	-14%
114	Cc1noc(C(=O)N2CC3(C)CC2CC(C)(C)C3)c1Cl (centres undefined)	-8%	-15%
115	O=S(=O)(c1cccs1)N1CCN(CC(O)COC2CCCc3ccccc32)CC1 (centres undefined)	-11%	-23%

Record cards (already shown). Order of screens: VACV Venus inh	VACV mCherry inh
COc1ccc(S(=O)(=O)Nc2nncs2)cc1 is listed as -10%	-10%
CCc1ccc(-n2c(CCC(=O)O)ccc2-c2cccs2)cc1 is listed as -9%	-2%

Compound activity (PubChem BioAssay)
